From PubChem BioAssay
SARS PLP yeast = blocks SARS-CoV papain-like protease in a yeast assay | S. cerevisiae expressing SARS-CoV PLpro, growth rescue; control for the full effect not named in the record | Potency, µM (doses to about 32.9 µM), for inactives: top-dose activity, positive = growth rescue | 330,000 compounds, 0.19% hits; active means well fitted rising curve with a large enough effect; inconclusive means small, poorly fitted or top-dose-only effect; inactive means no such curve, though single readings can be large or run the other way; also: 0% is about no effect; nearly all actives have a fitted effect of over 55% in size; growth read by luminescence after 48 h
RE007 growth inh = less growth of the S. pombe RE007 Vpr strain | S. pombe RE007 Vpr strain, BacTiter-Glo ATP luminescence, 24 h; control for the full effect not named in the record | 360,000 compounds, 0.21% hits | Potency, µM (highest dose often 92.2 µM), inactives show at the top dose activity change, negative = less growth | AID 651644; active = well fitted falling curve with a large enough effect; inconclusive = small, poorly fitted or top-dose-only effect; inactive = no such curve, though single readings can be large or run the other way;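 also: % is scaled to controls: 0 for no effect and ±100 for the full control effect; nearly all actives have a fitted effect of over 50% in size; the assay follows cell death caused by Vpr and the record does not say whether a fall means rescue or toxicity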
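Fission yeast RE007 carrying one integrated HIV-1 vpr copy, seeded at OD 0.01 in PMG+AL medium with 23 nL pinned compound. Grown 24 h at 30 degrees; viability read by BacTiter-Glo luminescence after 5 min.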
NS1 inh = inhibitors of influenza NS1 protein function | S. cerevisiae slowed by influenza A NS1, growth recovery by OD600 | 270,000 compounds, 0.4% hits | Potency, µM (doses to about 46.1 µM), for inactives: at the top dose activity, positive = more growth; active means well fitted rising curve with a large enough effect; inconclusive means small, poorly fitted or top-dose-only effect; inactive means no such curve, though single readings can be large or run the other way; also: nearly all actives have a fitted effect of over 50% in size
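OD600 was taken as the measure of yeast growth restored by compound in an NS1-expressing S. cerevisiae strain. Cells had been washed out of glucose medium and diluted 1:100 into galactose -URA medium, pH 6.0.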
Cruzain noTriton = inhibitors of Trypanosoma cruzi cruzain without detergent; purified cruzain, Z-FR-AMC fluorescence, no detergent; Potency, µM, for the others: max response, negative = inhibition, actives largely listed as inhibitors; 200,000 compounds, 2.3% hits; AID 1476;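 also: plate controls were enzyme without inhibitor for no effect and buffer without enzyme for full effect; nearly all actives have a fitted effect of over 40% in size; top concentration of the series not given in the record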
Target sequence (P25779 123-467 limits assumed): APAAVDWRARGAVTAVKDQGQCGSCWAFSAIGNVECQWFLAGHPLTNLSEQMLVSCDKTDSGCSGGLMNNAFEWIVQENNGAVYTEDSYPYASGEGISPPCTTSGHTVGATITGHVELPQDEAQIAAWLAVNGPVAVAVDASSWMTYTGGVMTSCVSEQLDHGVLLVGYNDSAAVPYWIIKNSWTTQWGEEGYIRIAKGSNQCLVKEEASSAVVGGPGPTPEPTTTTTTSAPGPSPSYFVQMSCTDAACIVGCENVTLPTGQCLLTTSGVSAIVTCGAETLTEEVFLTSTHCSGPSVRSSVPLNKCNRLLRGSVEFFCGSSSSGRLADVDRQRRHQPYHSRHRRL
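Detergent-free condition (0.00005% Triton X-100) in acetate buffer pH 5.5 with DTT. 1.5 nM enzyme and compound were pre-mixed 15 min, then 2 uM Z-FR-AMC substrate added; reaction progress from fluorescence change between first and third reads (60 s).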
StopGo reporter = FMDV 2A StopGo reporter, luciferase signal. human cells with a luciferase reporter of 2A StopGo recoding; control for the full effect not named in the record. Potency, µM (series often up to 57.9 µM), for the others: at the highest dose signal change, negative = less light. 410,000 compounds, 1.2% hits. AID 1159524; active = well fitted falling curve with a large enough effect; inconclusive = small, poorly fitted or top-dose-only effect; inactive = no such curve, though single readings can be large or run the other way; tested in HEK293T cells; also: % is scaled to controls: 0 for no effect and ±100 for the full control effect; nearly all actives have a fitted effect of over 45% in size; luciferase light after 4 h
LASV entry inh = inhibitors of Lassa virus binding or cell entry | 300,000 compounds, 1.2% hits | Lassa virus pseudotype entry inhibition, cell reporter; control for the full effect not named in the record | Potency, µM (top dose mostly 37.9 µM), for the others: top-dose activity change, negative = inhibition, hits mostly inhibitors; active means well fitted inhibition curve with a large enough effect; inconclusive means small, poorly fitted or top-dose-only effect, or effect the other way; inactive means flat fitted curve, though single readings scatter; tested in HEK293 cells; also: % is scaled to controls: 0 for no effect and ±100 for the full control effect; nearly all actives have a fitted effect of over 50% in size; luciferase read-out
Cruzain inh Det = cruzain (T. cruzi) inhibition with detergent; purified cruzain, Z-FR-AMC fluorescence, 0.01% Triton; 200,000 compounds, 0.43% hits; P25779; Potency, µM, for inactives: max response, negative = inhibition, usual class: inhibitors; AID 1478;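 also: plate controls were neutral wells for no effect and buffer without enzyme for full effect; nearly all actives have a fitted effect of over 40% in size; top concentration of the series not given in the record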
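Detergent-containing arm of a paired screen for aggregation-based inhibition: 0.01% Triton X-100 present. Cruzain at 1.5 nM cleaved 2 uM Z-FR-AMC at pH 5.5 with 5 mM DTT; AMC fluorescence gain over 60 s measured activity.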
Marburg entry inh = Marburg virus entry inhibition. 300,000 compounds, 1.8% hits. Potency, µM (highest dose often 37.8 µM), for inactives: at the highest dose activity change, negative = inhibition, usual class: inhibitors. Marburg virus pseudotyped entry inhibition, cell reporter; control for the full effect not named in the record; about a third of the inactives were read at about 46 µM; active = well fitted inhibition curve with a large enough effect; inconclusive = small, poorly fitted or top-dose-only effect, or effect the other way; inactive = flat fitted curve, though single readings scatter; tested in HEK293 cells; about a fifth of its hits are not listed in these tables; also: % is scaled to controls: 0 for no effect and ±100 for the full control effect; luciferase read-out
* marks the source's active call; other numbers are inactive results; ? = inconclusive; nt = no result given; & = joins results of further samples; [ ] = remark or other dose. Unless noted, calls follow the shape of the dose curve; as a rule, active = well fitted curve in the direction sought with a large enough effect; inconclusive = small, poorly fitted or top-dose-only effect, or another doubt; inactive = no such curve, though single readings can be large; an effect the other way counts as inactive or inconclusive. Potency is read from the fitted curve at half-maximal effect.

SMILES | SARS PLP yeast | RE007 growth inh | NS1 inh | Cruzain noTriton | StopGo reporter | LASV entry inh | Cruzain inh Det | Marburg entry inh
O=C(c1ccccc1)N1CCN(CC#Cc2ccccc2)CC1 | 1% | 7% | -19% | 3% | 4% | 6% | 4.4% | ?
O=C(Nc1ccc(Br)cc1)C(c1ccccc1)c1ccccc1 | 2% | -1% | -4% | nt | -18% | nt | nt | nt
CC(O)c1cccc(NC(=O)CCCc2ccccc2)c1 (stereo not given) | 1% | 3% | 3% | nt | 36%[activator] | nt | nt | nt
O=C(CCCN1CCC(NC(=O)c2ccccc2)CC1)c1ccc(Cl)cc1 | 1% | 6% | 10% | nt | -18% | nt | nt | nt
Cc1ccc(CCNC(=O)C2CC(=O)N(CCc3ccc(C)cc3)C2)cc1 (stereo not given) | nt | nt | nt | 8% | 8% | ? | -0.1% | nt
Cc1ccc(CC(=O)NCc2ccc(F)cc2)cc1 | 0% | 41% | nt | nt | 9% | -21% | nt | ?
CC1(C)Cc2c(sc3c2C(=O)N(c2ccccc2)C2=NCCCN23)CO1 | -1% | -3% | 12% | 9% | -13% | 18% | -2.2% | -17%&-17%
Cc1ccc(NC(=S)NN(C)c2nc(C)cnc2C)cc1 | 6% | 32% | 23% | -7% | -2% | -6% | -0.4% | 12%
CNc1nnc(CSc2nc(C)cc(C)n2)s1 | 1% | 2% | 8% | -1% | -14% | 1% | -5.6% | ?
CCO[C@H]1OC(C(=O)NCc2nc3ccccc3[nH]2)=C[C@@H](c2ccc(C(F)(F)F)cc2)[C@@H]1CCCO | 0% | -1% | -15% | nt | ? | nt | nt | nt
CCOc1cc(/C=N/Nc2nc(-c3cccs3)c(NC(C)=O)s2)ccc1O | 3% | -6% | 10% | nt | -15% | ? | nt | ?
Cc1ccc(Nc2ncc3c(n2)CC(C)CC3=O)c(C)c1 (stereo not given) | 0% | 2% | -5% | nt | 43%[activator] | nt | nt | nt
Cc1cccnc1NC(=O)C1CC(=O)N(c2ccc3c(c2)OCCO3)C1 (stereo not given) | -7% | 7% | nt | nt | -4% | 8% | nt | ?
O=C(NNC1=Nc2ccccc2SC1)c1cccc([N+](=O)[O-])c1 | -1% | -10% | -3% | nt | -5% | ? | nt | ?
CCOC(=O)c1cc(-c2ccc(OC)cc2)n(CCC(=O)Nc2ccc(OC)cc2OC)c1C | nt | nt | nt | ? | 0% | ? | -5.5% | nt
O=C(Nc1ccccc1N1CCCC1)C1CCN(S(=O)(=O)c2ccccc2C(F)(F)F)CC1 | -5% | 7% | nt | nt | -18% | 5% | nt | ?
C[C@H](NS(=O)(=O)c1ccccc1F)C(=O)OCC(=O)Nc1ccc2c(c1)OCCO2 | -2% | -11% | nt | nt | 2% | ? | nt | 1%
Cc1ccc(NS(=O)(=O)c2ccc(-n3cccn3)cc2)cc1C | 3% | -17% | -3% | nt | 14% | -15%[46.1 µM] | nt | -15%[46.1 µM]
COC(=O)c1c(NC(=O)CS(=O)(=O)c2ccccc2)sc(C)c1C | -9% | 0% | nt | nt | 16% | -11% | nt | -16%
COc1ccc(OC)c(CNC(=O)c2coc(=O)c3ccccc23)c1 | 3% | 3% | 0% | nt | -3% | -7% | nt | -4%[46.1 µM]
O=C(O)C1=C[C@@H](c2coc3ccccc3c2=O)C[C@@H](OCc2ccc(CO)cc2)O1 | 0% | 8% | -4% | nt | -9% | nt | nt | nt
CC(=O)Nc1ccc(C(=O)N2CCc3cc4c(cc3C2C)OCCCO4)cc1 (stereo not given) | -7% | -16% | -21% | nt | -17% | nt | nt | nt
CC1(c2ccc(Cl)cc2)NC(=O)N(CC(=O)N2CCN(S(=O)(=O)c3ccccc3)CC2)C1=O (stereo not given) | -3% | -8% | nt | nt | -8% | ? | nt | 26%
COC(=O)c1ccc(-n2nnnc2SCC(=O)Nc2ccccc2C(=O)OC)cc1 | 3% | 49% | 6% | 0% | ? | 1% | -4.5% | 0%
O=C(CN(c1ccccc1)S(=O)(=O)c1ccccc1)NCCSc1nc2ccccc2s1 | 5% | 36% | 5% | -6% | 22µM* | -17% | -2.6% | ?
CCN(CC)S(=O)(=O)c1ccc(/C=C/C(=O)NC2CCCCC2)cc1 | 1% | -3% | -3% | nt | -14% | ? | nt | -10%[46.1 µM]
C=CC[n+]1ccn(-c2nc3ccccc3nc2[N-]S(=O)(=O)c2cccs2)c1 | 0% | -11% | 2% | nt | 11% | 5% | nt | -9%[14.2 µM]
COC(=O)C1=C(CSCc2ccccc2)NC(=O)NC1c1cc(C)ccc1C (stereo not given) | -4% | 8% | 22% | -6% | -21% | -9% | 2.2% | -29%
COc1cc(NC(=O)CSc2nnc(-c3ccncc3)n2C2CCCCC2)ccc1NC(=O)c1ccco1 | -3% | -1% | 9% | ? | nt | 24% | 2.6% | -6%
CCCOc1ccc(-c2nc(C#N)c(N3CCc4ccccc4C3)o2)cc1 | 14% | 11% | 0% | -92% | 11% | -1% | 25µM* | 5%
CC1(C)CC(=O)c2cn3c(nc2C1)nc1ccccc13 | 1% | -11% | -40% | 0% | 5% | 8% | -8.2% | 1%
CC(C)C(NC(=O)c1c(F)cccc1F)C(=O)N1CCN(c2ccccc2F)CC1 (stereo not given) | -1% | -1% | -2% | nt | -8% | -12% | nt | 3%
COc1ccc(C(=O)Nc2ccc(C)cc2C(=O)c2ccccc2)cc1 | 7% | 2% | -3% | -3% | -15% | -1% | -3.8% | 14%
CC1=C(C(=O)Nc2ccccc2)C(c2ccc(C)o2)n2c(s/c(=C\c3ccco3)c2=O)=N1 (stereo not given) | 4% | 7% | 25% | ? | -19% | -5% | -11% | ?
CCCCOC(=O)n1c(SCC(=O)N(CC)CC)nc2ccccc21 | 0% | 7% | -67% | ? | -6% | 17% | -5.0% | 1%
CC(=O)N/C(=C\c1ccccc1)C(=O)OCC(=O)NC(=O)c1ccccc1 | -3% | 2% | nt | nt | -13% | 5% | nt | 0%[46.1 µM]
CCC(=O)c1ccc(N2CCN(C(=O)COc3ccc(F)cc3)CC2)c(F)c1 | -9% | -14% | 1% | -4% | 0% | -5% | -6.9% | 1%
Fc1cc2nccnc2cc1N1CCSCC1 | -8% | 31% | 2% | 10% | 23% | 12% | 1.3% | 22%
O=C1c2ccccc2C(=O)N1CCc1csc(NNc2nc(CCN3C(=O)c4ccccc4C3=O)cs2)n1 | 1% | 7% | nt | nt | -20% | 7%[46.1 µM] | nt | 0%[46.1 µM]
S=C(c1ccc(-c2ccc(Cl)cc2Cl)o1)N1CCCCC1 | -13% | 4% | -10% | -27% | 17% | -15% | 3.3% | ?
CC(C)Cn1cnc2c1c(=O)n(CC(=O)N(C)C)c(=O)n2Cc1ccccc1 | 1% | 27% | nt | nt | 3% | nt | nt | 5%[46.1 µM]
Cc1c(C(=O)N2CCCCC2)c(S(=O)(=O)N2c3ccccc3CC2C)c(C)n1C (stereo not given) | -2% | -1% | 1% | nt | -5% | nt | nt | nt
Cc1ccc(CCCOC(=O)C[N+]2(C)CCOCC2)cc1 | -7% | 12% | 2% | 2% | -15% | 2% | 1.8% | ?
O=C(COC(=O)c1ccc(O)cc1)Nc1ccccc1[N+](=O)[O-] | 0% | -8% | nt | nt | 23% | -21% | nt | 8%[46.1 µM]
COc1cccc(NC(=O)CSc2nc(-c3ccccc3)nc3c2Cc2cc(Cl)ccc2O3)c1 | nt | nt | nt | 0% | 5% | 13%[46.1 µM] | -0.1% | -17%[46.1 µM]
COC(=O)c1onc(-c2c(OC)cc(OC)cc2OC)c1C(=O)OC | 7% | 4% | 1% | -1% | 0% | -1% | 2.9% | 1%
O=S(=O)(c1ccc2ccccc2c1)N1CCCCCC1 | -3% | 12% | -4% | nt | 0% | 13% | nt | ?
CCc1nc(C)ccc1OCC(=O)O | 2% | -11% | -3% | 1% | -16% | 2% | 4.7% | ?
Cc1ccc2nc(N/C(=N/S(=O)(=O)c3cccs3)c3ccccc3Cl)sc2c1 | 2% | 5% | nt | nt | 0% | -15% | nt | nt
CCOc1ccc(C(C)C)cc1S(=O)(=O)N1CCOCC1 | 0% | 8% | nt | nt | 1% | 10% | nt | 5%[46.1 µM]

Next records follow:
SMILES | SARS PLP yeast | RE007 growth inh | NS1 inh | Cruzain noTriton | StopGo reporter | LASV entry inh | Cruzain inh Det | Marburg entry inh
CC1(C)CC(=O)C2=C(C1)NC1=C(C(=O)c3ccccc31)C2c1ccc(Cl)cc1 (stereo not given) | 9% | -21% | 9% | -18% | 0% | ? | -5.6% | ?
Cc1nc(NC(=O)/C=C/c2ccccc2)n[nH]1 | -50% | 1% | -32% | -7% | ? | ? | -4.7% | ?
COc1ccc(C2CC(=O)Nc3ccccc3S2(=O)=O)cc1OC (stereo not given) | 6% | 1% | 5% | 0% | 7% | 17% | -2.6% | 10%
CCOc1ccc(OCc2cccc(C(=O)N/N=C/c3cccnc3)c2)cc1 | 8% | 6% | 7% | ? | -40% | 1.6µM* | -4.3% | 0.32µM*
O=C1CC(N2CCN(S(=O)(=O)c3cccc(C(F)(F)F)c3)CC2)C(=O)N1Cc1ccccc1 (stereo not given) | -12% | 5% | -5% | ? | -16% | 5% | -5.5% | 8%&-18%
COCCNC(=O)c1c[nH]c2ccc(S(=O)(=O)N3CCc4ccccc43)cc2c1=O | 2% | 4% | nt | nt | ? | ? | nt | ?
Cc1cc(C)c(C#N)c(SCC(=O)N(C)C2CCCCC2)n1 | 6% | -22% | -57% | -4% | 4% | -21% | -4.6% | 7%
CCOC(=O)CN1C(=O)S/C(=C\c2ccc(-c3cccc(C(=O)O)c3C)o2)C1=O | nt | -11% | nt | nt | 47%[activator] | 3%[46.1 µM] | nt | ?
COc1ccccc1/C=C1\S/C(=N/NC(=O)c2cccc(Br)c2)NC1=O | 15% | 3% | -46% | -9% | 0% | -18% | -17% | 12%
CCN1CCCC1CNS(=O)(=O)c1ccc(C(=O)Nc2ccccc2)cc1 (stereo not given) | -7% | -2% | -5% | 3% | -1% | 2% | 1.1% | ?
